High-throughput results from PubChem.
RE007 growth inh: less growth of the S. pombe RE007 Vpr strain. S. pombe RE007 Vpr strain, BacTiter-Glo ATP luminescence, 24 h; control for the full effect not named in the record. Potency, µM (doses to about 92.2 µM), without a hit: at the top dose activity change, negative = less growth. 360,000 tested, 0.21% active; active = well fitted falling curve with a large enough effect; inconclusive = small, poorly fitted or top-dose-only effect; inactive = no such curve, though single readings can be large or run the other way;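 further: on the % scale 0 is the no-effect control and ±100 the full control effect; nearly all actives have a fitted effect of over 50% in size; the assay follows cell death caused by Vpr and the record does not say whether a fall means rescue or toxicity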
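Fission yeast strain RE007, carrying one chromosomally integrated HIV-1 vpr copy, was seeded at OD 0.01 in PMG+AL medium with 23 nL pinned compound. After 24 h at 30 °C and 99% humidity, viability was read by BacTiter-Glo luminescence.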
SARS PLpro yeast: inhibitors of SARS-CoV papain-like protease in yeast. 330,000 tested, 0.19% active. AID 485353. Potency, µM (titrated, usually from 32.9 µM), for inactives: at the highest dose activity, positive = growth rescue. S. cerevisiae expressing SARS-CoV PLpro, growth rescue; control for the full effect not named in the record; active means well fitted rising curve with a large enough effect; inconclusive means small, poorly fitted or top-dose-only effect; inactive means no such curve, though single readings can be large or run the other way; further: 0% is about no effect; nearly all actives have a fitted effect of over 55% in size; growth read by luminescence after 48 h
2A StopGo: FMDV 2A StopGo reporter, luciferase signal; 410,000 tested, 1.2% active; Potency, µM (titrated, usually from 57.9 µM), for the others: top-dose signal change, negative = less light; human cells with a luciferase reporter of 2A StopGo recoding; control for the full effect not named in the record; active = well fitted falling curve with a large enough effect; inconclusive = small, poorly fitted or top-dose-only effect; inactive = no such curve, though single readings can be large or run the other way; tested in HEK293T cells; further: on the % scale 0 is the no-effect control and ±100 the full control effect; nearly all actives have a fitted effect of over 45% in size; luciferase light after 4 h
Active calls of the source: *; ? = inconclusive; [ ] = remark or other dose. Potency means the concentration at half of the fitted maximal effect. Some of the compounds tested; the hit share may differ from the screen's.

SMILES,SARS PLpro yeast,RE007 growth inh,2A StopGo
CC(C)n1cnnc1SCC(=O)Nc1cccnc1Cl,3%,2%,-3%
Cc1cc(C)n(CC(=O)NC2C(=O)N3C(C(=O)O)=C(CSc4nnc(C)s4)CSC23)n1 (stereo not drawn),-3%,-13%,-3%
CC1CCN(C(=O)COC(=O)CNC(=O)C23CC4CC(CC(C4)C2)C3)CC1,0%,8%,-5%
CC(O)CC(=O)NOCc1ccccc1 (stereo not drawn),?,4%,-16%
CCOC(=O)Cc1csc(NC(=O)COc2c(C)cccc2C)n1,0%,-2%,-24%
COCCNC(=S)N(CCc1c(C)[nH]c2ccccc12)Cc1ccco1,0%,-6%,-2%
Cc1cc(NC(=O)c2ccc([N+](=O)[O-])o2)ccc1NC(=O)c1ccco1,-22%,-17%,-7%
COc1ccccc1CNC(=O)C1CSC2(C)CCC(=O)N12 (stereo not drawn),3%,-10%,3%
CC(C)CCNC(=O)C(c1ccncc1)N(C(=O)Cn1nnc(-c2ccc(F)cc2)n1)c1ccccc1F (stereo not drawn),0%,-15%,4%
CC(C)OC(=O)NS(=O)(=O)c1cccc([N+](=O)[O-])c1,-1%,0%,-8%
O=C(CSc1nnc(-c2ccccc2F)n1C1CC1)NCc1ccco1,6%,6%,8%
CCSC1=NCCN1C(=O)c1ccc(S(=O)(=O)N(C)C)cc1,-2%,?,-16%
CCCn1c(SCC(=O)NCc2ccc3c(c2)OCO3)n[nH]c1=O,5%,9%,-18%
O=C(CC1C[C@H](C(=O)N2CCOCC2)[C@@]2(CCC3CCCC3)c3[nH]c4ccccc4c3CCN2C1=O)NCC12CC3CC(CC(C3)C1)C2 (stereo partly drawn),-3%,-2%,?
CC(OC(=O)C1=COCCO1)C(=O)NC1CCCCC1C (stereo not drawn),3%,6%,-6%
Cn1c(-c2ncc(F)cc2F)cc2onc(-c3c(F)cccc3Cl)c2c1=O,-4%,8%,31%[activator]
N#Cc1c(SCc2c(Cl)cccc2Cl)nc(N)[nH]c1=S,0%,0%,3%
CN1CCN(S(=O)(=O)c2ccc(Nc3cccc(Cl)c3)c([N+](=O)[O-])c2)CC1,-2%,5%,-16%
Cc1cc(=O)[nH]c(N/N=C/c2cn(CCC#N)nc2-c2ccccc2)n1,0%,16%,17%
C[C@H](CO)N1C[C@H](C)[C@@H](CN(C)S(=O)(=O)c2cn(C)cn2)Oc2ccc(NC(=O)NC3CCCCC3)cc2C1=O,1%,1%,-10%
CN(C)CCCNC(=O)C[C@H]1C[C@H](C(=O)N2CCOCC2)[C@@]2(C)c3[nH]c4cc(-c5ccco5)ccc4c3CCN2C1=O,-1%,-29%,-14%
Cc1ccc2c(c1)[C@H]1[C@H](CO2)[C@H](c2ccccc2)[C@]2(C)C(=O)N(Cc3ccc(F)cc3)CC(=O)N12,1%,-5%,?
CC(=O)c1csc(-c2cccc(-c3nc4ccc(Cl)cn4c3NC3CCCCC3)c2)c1,3%,3%,?
CCCn1c(N)c(N2CCCCC2)c(=O)n(CC(=O)Nc2cccc(S(=O)(=O)N(C)C)c2)c1=O,1%,-8%,1%
CCOC(=O)C1=CC[C@H]2c3c(c4ccccc4n3C)C[C@H]1N2C,1%,-17%,-10%

Single records (already shown). Values in the order: SARS PLpro yeast | RE007 growth inh | 2A StopGo
CN1CCN(S(=O)(=O)c2ccc(Nc3cccc(Cl)c3)c([N+](=O)[O-])c2)CC1 is listed as -2% | 5% | -16%
CCCn1c(N)c(N2CCCCC2)c(=O)n(CC(=O)Nc2cccc(S(=O)(=O)N(C)C)c2)c1=O is listed as 1% | -8% | 1%

The listing continues.
SMILES,SARS PLpro yeast,RE007 growth inh,2A StopGo
OCC[C@H]1C[C@H](O)[C@@H](O)[C@@]2(OCCCc3ccccc32)O1,-1%,7%,-10%
COc1ccc(OC[C@@H](O)CNC(=O)c2cccc3c2C(=O)c2ccc(Cl)cc2S3(=O)=O)cc1,-5%,-1%,-2%
COc1cc2cnc(-c3ccccc3)c(-c3ccc(C(F)(F)F)cc3)c2cc1OC,-4%,6%,?
C[C@@]12C(=O)N(c3ccc(Cl)cc3)C(=O)N1[C@@H]1c3ccccc3OC[C@@H]1[C@H]2c1ccccc1,9%,-6%,-21%
CCCCN(C(=O)CC1CCCC1)c1c(N)n(CCCC)c(=O)[nH]c1=O,-1%,-10%,4%
COc1ccc(C(=O)c2c3ccc(OC)cc3[n+]([O-])n2Cc2ccc(C(N)=O)cc2)cc1,-1%,2%,50%[activator]
O=C(CNC(=O)C1CCCCC1)OCC(=O)c1ccc(F)cc1,4%,5%,-2%
O=C(Nc1ccccc1)n1cc(-c2ccccn2)c(N2CCOCC2)n1,-1%,2%,25%
CN(CC(=O)Nc1ccc2c(c1)OCCO2)Cc1nc2ccccc2c(=O)[nH]1,4%,-7%,5%
COc1ccc(C2=C(c3ccc(OC)c(OC)c3)CN3CCCCC3C2)cc1 (stereo not drawn),4%,-24%,-17%
COc1ccc(/C=C/C(=O)Nc2ccc(S(=O)(=O)N3CCOCC3)cc2)c(OC)c1,0%,-2%,-23%
COc1ccc(NC(=O)c2ccccc2)cc1,-3%,-4%,51%[activator]
O=C(CN1CCN(c2ccccc2F)CC1)NC(=O)NCc1ccccc1,0%,-18%,-7%
O=C(COC(=O)COc1ccccc1)NC1CCCC1,5%,6%,-11%
CC[C@]12c3[nH]c4cc(-c5ccco5)ccc4c3CCN1C(=O)[C@@H](CC(=O)NCCN1CCOCC1)C[C@@H]2C(=O)N1CCN(C(=O)c2ccco2)CC1,6%,-5%,-19%
Cc1ccc(S(=O)(=O)N2[C@@H](c3ccc(C(C)(C)C)cc3)C(C(=O)O)=CC[C@H]2c2cccc(Cl)c2)cc1,-9%,19%,-14%
O=C(COC(=O)c1c[nH]c2ccccc12)Nc1ccc(F)cc1,-3%,0%,-12%
CCN(CC(=O)Nc1c(F)cccc1F)C(=O)c1cnc(C)cn1,-3%,4%,-11%
CC(C)c1onc(C(=O)NC2CCCC2)c1[N+](=O)[O-],-3%,-1%,0%
O=C(N[C@H]1/C=C\[C@@H](O)CCCC1)OCc1ccccc1,16%,-11%,39%[activator]
O=C(Cc1ccc([N+](=O)[O-])cc1)N/N=C/c1ccco1,0%,6%,-4%
CCOC(=O)C1CCN(S(=O)(=O)NC[C@H]2O[C@@H](n3cnc4c(N)ncnc43)[C@H](O)[C@@H]2O)C1 (stereo partly drawn),4%,6%,1%
Cc1ccc(C(c2cc(Br)ccc2O)N2CCSCC2)cc1 (stereo not drawn),-26%,-11%,-20%
O=C(Cc1cccc2ccccc12)NCC(=O)N1CCN(Cc2cccc(C(F)(F)F)c2)CC1,-1%,-27%,?
Cc1ccc(NC(=O)c2ccc(COc3ccccc3[N+](=O)[O-])o2)nc1,-3%,-5%,-2%

Later entries.
SMILES,SARS PLpro yeast,RE007 growth inh,2A StopGo
Cc1cc(C)c(C(=O)/C=C/c2cccs2)c(=O)[nH]1,0%,-3%,36%[activator]
O=C(COC(=O)C1(c2ccccc2)CCCC1)N1CCNC1=O,-2%,1%,-21%
COc1ccc(C(CNC(=O)c2ccc(C)c(S(=O)(=O)N3CCCCC3)c2)N(C)C)cc1OC (stereo not drawn),-3%,-3%,0%
O=C(CN1CCN(c2ccc(O)cc2)CC1)Nc1cc(S(=O)(=O)N2CCCC2)ccc1Cl,-1%,7%,-4%
Cc1ccc(S(=O)(=O)N2CCOCC2)cc1C(=O)Nc1cccc(C(=O)NC2CC2)c1,-2%,2%,-10%
Cc1[nH]n(-c2cccc([N+](=O)[O-])c2)c(=O)c1-c1ccccc1,-3%,-14%,1%
CCc1ccccc1NC(=O)CNC(=O)CSC(=S)N1CCCC1,1%,3%,-6%
CCCc1cc(-c2ccc3c(c2)COc2c4ccccc4nn2-3)on1,0%,1%,-21%
CN(C)c1cccc(C(=O)N/C=C/n2cnc3cc(C(F)(F)F)ccc32)c1,-2%,4%,-12%
COC(=O)C(Cc1c[nH]c2ccccc12)NC(=O)c1cccc(S(=O)(=O)N2CCCCC2)c1 (stereo not drawn),-4%,2%,10%
COc1ccc(N2C(=O)N(Cc3ccc(C)cc3)c3ccccc3S2(=O)=O)cc1,-9%,19%,-23%
Cc1c(C(=O)NCc2ccco2)oc2c(F)cccc12,2%,-16%,-8%
Cc1nc2nc(SCC(=O)NCCCN3CCOCC3)nn2c(C)c1Cc1ccccc1,-2%,4%,7%
O=C(NCc1nc2ccccc2[nH]1)c1ccc([N+](=O)[O-])cc1,-4%,7%,-1%
CC(C)(C)OC(=O)NCCCCCNC(=O)c1[nH]cnc1C(=O)Nc1nccs1,1%,6%,0%
C[C@H](CO)N1C[C@H](C)[C@@H](CN(C)S(=O)(=O)c2ccc(Cl)cc2)Oc2ccc(NS(=O)(=O)c3ccccc3)cc2CC1=O,-3%,3%,0%
CC(C)N(Cc1nnc(-c2ccccc2Br)o1)C(=O)c1cc(Cl)nc2ccccc12,-4%,0%,?
CCC/C(=C1/c2ccccc2C(=O)N1c1ccccc1)c1ccc2[nH]ccc2c1,-2%,12%,0%
CCN(CC(=O)Nc1ccc(OC)cc1)C(=O)c1ccc(N2CCCC2=O)cc1,2%,11%,6%
COc1ccc(S(=O)(=O)Nc2cccc3c2O[C@@H](CN(C)CC2CC2)[C@@H](C)CN([C@@H](C)CO)C3=O)cc1,-5%,0%,22%
Cc1ccc(S(=O)(=O)NCC(=O)OCC(=O)Nc2ccc3c(c2)OCCO3)cc1,-4%,0%,-9%
COCCN(C(=O)C1CC(=O)N(Cc2ccccc2)C1)c1nc(-c2ccc([N+](=O)[O-])cc2)cs1 (stereo not drawn),-2%,1%,-24%
Cc1ccc(Cn2cc(/C=N/NC(=O)Cc3nnc(NC(=O)c4ccc(C)cc4)s3)c3ccccc32)cc1,-2%,1%,10%
COc1ccc([C@H]2CC(=O)C=C(c3ccc4ccn(C)c4c3)C2)cc1,4%,23%,0%
O=C1OC[C@@H]2CCCN2C(=O)[C@H](CC(=O)N(CCO)Cc2ccccc2)C/C=C\CC[C@@H]1Cc1ccc(F)cc1,-2%,2%,-7%

Next compounds
SMILES,SARS PLpro yeast,RE007 growth inh,2A StopGo
Cc1cc(C(=O)OCC(=O)NC2CCCCC2C)c2ccccc2n1 (stereo not drawn),-4%,1%,?
O=C(COC(=O)/C=C/c1ccc([N+](=O)[O-])cc1)NCc1cccs1,2%,-8%,-24%
CCNC(=O)N(C)C[C@H]1N[C@@](CC)(C(=O)OC)[C@H]2C(=O)N(C)C(=O)[C@@H]12,1%,-22%,-8%
Cc1cc(Cl)ccc1OCC(=O)NNC(=O)C1CCN(c2ncnc3sc(C)c(C)c23)CC1,2%,10%,?
COc1cccc(NC(=O)CN(C)C(=O)CCSc2ccc(C)cc2)c1,5%,-3%,-12%
NP(=O)(Oc1ccccc1Cl)Oc1ccccc1Cl,3%,-13%,-7%
Cc1ccc(C)c(-c2csc(NC(=O)c3c(C)noc3C)n2)c1,3%,-5%,?
C[C@H]1CN([C@@H](C)CO)C(=O)Cc2cc(NS(=O)(=O)c3cn(C)cn3)ccc2O[C@@H]1CN(C)C(=O)Nc1ccc(F)cc1,-17%,-16%,-22%
COc1ccc(C(CNC(=O)CNC(=O)c2ccc(F)cc2)N2CCCC2)cc1 (stereo not drawn),5%,-7%,0%
O=C(Nc1cc(S(=O)(=O)N2CCOCC2)ccc1N1CCOCC1)c1ccccc1F,0%,7%,-19%
CC(C)(C)[C@H]1COC(=O)CC/C=C\C[C@@H](CC(=O)N[C@H](CO)Cc2ccccc2)C(=O)N1,1%,6%,-3%
CCOc1ccccc1OCCCC(=O)NNC(=O)c1cc(C)oc1C,2%,7%,-11%
COc1ccccc1-c1sc2ccccc2c1C#Cc1ccc(N(C)C)cc1,6%,11%,-10%
COc1ccc([C@H]2CC(=O)C=C(/C=C/Cc3ccccc3)C2)cc1,2%,7%,?
Cc1noc(C)c1COc1ccc(C(=O)NCCc2ccc(F)cc2)cc1,0%,-5%,-8%
COCCCNC(=O)CC1C[C@H](C(=O)N(C(C)C)C(C)C)[C@@]2(C)c3[nH]c4ccc(OC)cc4c3CCN2C1=O (stereo partly drawn),4%,9%,0%
O=C(CN1CCCCC1)NC(=O)NC1CCCCC1,3%,7%,24%
COc1cc(S(=O)(=O)Nc2cccnc2)ccc1Cl,0%,-10%,19%
Cc1cc(C)cc(NC(=O)COC(=O)CCn2c(C)csc2=O)c1,3%,1%,-8%
C=CCC[C@@H](Cc1ccc(F)cc1)C(=O)O[C@H](CNC(=O)[C@H](CC=C)CC(=O)N(CCO)Cc1ccccc1)c1ccccc1,-4%,17%,?
